UCH37 inh: blocks the human deubiquitinase UCH37. AID 588478. inhibition, % (no concentration beside the values). Q9Y5K5. hit rate 0.33% among 330,000. purified proteasome/UCH37, Ub-AMC cleavage fluorescence;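 active = mean of two replicates above 20%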;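 also: 0% = compound-free wells with enzyme and 100% = wells lacking proteasome; stock transfer was 100 nL into about 20 µL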
Target sequence (Q9Y5K5 whole entry, looked up): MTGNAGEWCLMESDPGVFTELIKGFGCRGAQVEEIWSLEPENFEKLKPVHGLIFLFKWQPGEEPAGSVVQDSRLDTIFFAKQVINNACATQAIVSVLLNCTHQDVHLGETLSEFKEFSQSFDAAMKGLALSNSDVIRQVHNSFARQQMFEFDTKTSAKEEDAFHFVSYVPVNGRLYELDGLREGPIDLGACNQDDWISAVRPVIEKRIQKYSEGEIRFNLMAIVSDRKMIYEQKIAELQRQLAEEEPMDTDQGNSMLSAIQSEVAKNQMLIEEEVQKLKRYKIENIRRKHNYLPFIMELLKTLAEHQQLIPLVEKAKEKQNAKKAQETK
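Assay system: Proteasome-bound UCH37. Buffer or medium: pH 7.4 Tris-HCl (50 mM) with ovalbumin, ATP-MgCl2, DTT. Incubation: 30 min preincubation with enzyme, 25 min cleavage at room temperature. Measured by: fluorescence, ex 355 nm, em 460 nm. Read-out basis: percent inhibition. Control set: wells without proteasome as full block, compound-free enzyme plus substrate as uninhibited.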
Ecoli growth: inhibitors of Escherichia coli growth. OD600 absorbance (concentration not given with the values). OD600, 23 h; stronger effect = lower value. hit rate 0.21% among 330,000;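 active = OD600 absorbance below the run mean of sample wells minus 3.6 SD, in any replicate, cut at about 0.56 in these data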;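 also: stock transfer was 300 nL into about 60 µL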
FGF22 binding: binders of recombinant human FGF22 by thermal shift; Q9HCT0; SYPRO orange fluorescence; percent of sucrose octasulfate shift, DMSO zero; calls only at 9.99 µM; hit rate 1.5% among 340,000;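 active = melting point raised past a set limit in the mean and every replicate; three in four hits are not shown here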
Target sequence (Q9HCT0 whole entry, looked up): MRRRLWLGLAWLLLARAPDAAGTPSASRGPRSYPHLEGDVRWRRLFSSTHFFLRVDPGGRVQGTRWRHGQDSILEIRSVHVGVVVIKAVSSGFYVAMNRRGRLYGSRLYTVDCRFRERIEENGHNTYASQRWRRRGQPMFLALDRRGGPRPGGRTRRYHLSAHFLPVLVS
Bfl-1 A1 inh: inhibitors of the anti-apoptotic protein A1, read as caspase activation. MEF A1-2A-BIM cells, Caspase-Glo 3/7 luminescence, 3 h; percent of clofoctol response, vehicle zero. caspase activation, % (test concentration not listed). hit rate 0.066% among 330,000;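 active = over half of replicate activation scores above 10%, or exactly half above 10 with the replicate mean above 10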;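 also: wells of about 30 µL received 50 nL stock; many hits fall short of the cut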
MLL AF4-AF9 inh: blocks AF4 peptide binding to human AF9 | P42568 | AlphaScreen, biotin-AF4 peptide binding to FLAG-AF9 | inhibition, % at 10 µM | hit rate 0.47% among 350,000 | AID 651704;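 active = every replicate reaching a set inhibition limit, whatever the replicate mean, cut at about 25% in these data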;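 also: 0% = plate neutral control median and 100% = total signal loss; the record names both 10 and 1 µM as test concentration; the first replicate is given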
Target sequence (P42568 whole entry, looked up): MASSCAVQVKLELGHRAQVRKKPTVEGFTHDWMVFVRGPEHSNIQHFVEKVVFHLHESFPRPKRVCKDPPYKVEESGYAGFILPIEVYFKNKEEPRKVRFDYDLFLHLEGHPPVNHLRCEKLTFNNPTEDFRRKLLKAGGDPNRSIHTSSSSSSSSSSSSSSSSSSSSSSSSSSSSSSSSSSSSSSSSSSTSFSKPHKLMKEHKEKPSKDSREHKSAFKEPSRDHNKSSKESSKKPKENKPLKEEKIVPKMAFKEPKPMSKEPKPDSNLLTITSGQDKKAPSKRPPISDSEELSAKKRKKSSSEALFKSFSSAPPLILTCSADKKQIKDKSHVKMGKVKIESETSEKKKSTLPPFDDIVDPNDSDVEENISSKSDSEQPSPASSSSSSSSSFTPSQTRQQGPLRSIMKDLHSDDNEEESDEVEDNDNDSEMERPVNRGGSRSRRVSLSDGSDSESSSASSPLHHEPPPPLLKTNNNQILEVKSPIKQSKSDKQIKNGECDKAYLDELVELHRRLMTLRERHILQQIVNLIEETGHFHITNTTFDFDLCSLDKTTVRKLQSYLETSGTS
T cruzi inh: T. cruzi replication inhibition; hit rate 1.4% among 300,000; T. cruzi beta-gal in NIH3T3, luminescence, 90 h; inhibition, % (concentration not given with the values);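 active = mean inhibition across valid replicates above about 55%, limit read from the data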;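 also: signal also drops with host cell toxicity which is not excluded here; 0% = plate median of DMSO wells and 100% = zero luminescence signal; higher percent means less beta-gal luminescence so fewer parasites; stock transfer was 50 nL into about 50 µL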
Ecoli rRNA inh: selective bacterial rRNA inhibition in E. coli; E. coli WT GFP vs humanized-ribosome RFP mutants, fluorescence, 24 h; stronger effect = lower value; DMSO median 0, no signal -100; GFP signal change (wild-type ribosome), % (test concentration not listed); hit rate 1.6% among 350,000; AID 720706;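 active = significant combined selectivity score with lowered wild-type GFP, culture density cut under 30%, mutant RFP and density less affected; inactive = any of these conditions unmet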; also: one replicate is shown; some compounds called inactive have numbers as strong as hits
Beta cell apopt: beta cell apoptosis inhibition. INS-1E cytokine-induced death, ATP luminescence, 48 h; percent of positive-control rescue, neutral wells zero. protection from apoptosis, % (concentration not given with the values). hit rate 0.8% among 300,000. AID 435005;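 active = all replicates at 75% or more, or half of them and the mean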;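 also: 0% = cytokine-treated negative control wells and 100% = positive control rescue; higher means more ATP so stronger rescue from cytokine killing; wells of about 40 µL received 100 nL stock; the first replicate is given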
Ecoli rRNA inh OD600: second read-out of Ecoli rRNA inh, no call of its own (marks repeat the call); OD600 change, %; measured here: OD600 growth;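 optical density of the mix in the first replicate; 0 = DMSO median and -100 = no signal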
Ecoli rRNA inh RFP: recorded beside Ecoli rRNA inh, whose call it bears; RFP signal change, %; measured here: RFP humanized mutant strains;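 first replicate; 0 = DMSO median and -100 = no signal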
* = called active by the depositor; i = inactive; nt = no result given. An excerpt, so the mix of outcomes need not match the whole.

SMILES | UCH37 inh | Ecoli growth | FGF22 binding | Bfl-1 A1 inh | MLL AF4-AF9 inh | T cruzi inh | Ecoli rRNA inh | Ecoli rRNA inh OD600 | Ecoli rRNA inh RFP | Beta cell apopt
CCNc1nc(OC)nc(SCC(=O)Nc2ccccc2)n1 | -0.2 | 0.693 | i | -0.7 | 2.8 | 3.0 | 4.1 | -1.0 | -4.6 | 0.5
CC1CCN(C(=O)COC(=O)c2cccc(S(=O)(=O)N(C)c3ccccc3)c2)CC1 | 1.7 | 0.708 | i | 0.1 | -0.1 | nt | -7.5 | -32.0 | -6.4 | 5.5
Fc1cnc(N2CCN(c3ccccc3)CC2)nc1N1CCN(c2ccccc2)CC1 | 0.4 | 0.74 | i | -0.7 | 3.9 | -39.1 | 13.1 | 1.3 | 2.8 | -2.9
CC(=O)C1=C(O)C(=O)N(c2ccc(O)cc2)C1c1ccc(Cl)cc1 (centres undefined) | 5.7 | 0.656 | i | 0.3 | -0.8 | -15.2 | 12.8 | 5.9 | 2.0 | nt
Cc1ccc(-c2cc(C(=O)NCc3cn(C)nc3C)c3cc(Br)ccc3n2)cc1 | -0.1 | 0.691 | nt | 0.3 | nt | 11.4 | nt | nt | nt | -2.5
CC(C)C(=O)Nc1cccc(-c2nc3ccccc3o2)c1 | -0.1 | 0.663 | nt | -0.4 | nt | -15.2 | nt | nt | nt | 1.4
CCN(CC)CCNC(=S)Nc1ccc2nc(N3CCCC3)cc(C)c2c1 | -20.2 | 0.696 | i | 1.2 | 9.1 | 53.6 | 21.6 | 1.9 | -1.6 | 3.4
Cn1c(=O)c2[nH]c(-c3ccccc3)c(O)c2n(C)c1=O | -4.2 | 0.641 | i | 0.1 | 1.6 | 1.8 | 12.3 | 21.3 | 5.6 | -2.1
CCOC(=O)c1sc2ccc(S(=O)(=O)N3CCCCC3)cc2c1N | -27.4 | 0.619 | nt | 0.4 | nt | -8.3 | nt | nt | nt | 10.5
CCN(CC(=O)Nc1ccc(Br)cc1F)CC(=O)NC1CCS(=O)(=O)C1 (centres undefined) | -1.8 | 0.65 | i | 0.2 | -3.4 | nt | -0.5 | 5.5 | 0.0 | -0.2
CC(=O)Nc1ccc(NC(=O)Cc2sc(-c3cccnc3)nc2-c2ccc(C)cc2)cc1 | -4.1 | 0.679 | i | 0.7 | -0.1 | 69.5* | 13.1 | 8.9 | 5.7 | 1.8
CCOc1ccc(S(=O)(=O)NCc2cccnc2)cc1C(C)C | 4.7 | 0.645 | i | 0.8 | 4.9 | -14.1 | 3.3 | -11.8 | -0.4 | 4.0
O=c1[nH]c(Cc2ccccn2)nc2scc(-c3ccc(Cl)cc3)c12 | 0.8 | 0.696 | i | 0.0 | 1.0 | -17.6 | -1.1 | 0.5 | 2.2 | 4.5
Cc1cccc(N(C(=O)c2sc(C)nc2C)C(C(=O)NCc2ccco2)c2ccccc2)c1 (centres undefined) | 0.4 | 0.682 | nt | -0.1 | nt | 4.9 | nt | nt | nt | -8.9
CCC(C(=O)NCCCN1CCCCCC1)n1nc(C)c2sc3ccccc3c2c1=O (centres undefined) | 3.4 | 0.683 | i | 0.1 | -1.9 | -18.8 | 1.3 | 3.1 | -1.8 | -1.5
O=C1CSC(c2cccnc2)N1Cc1cccnc1 (centres undefined) | 2.2 | 0.636 | i | -0.2 | 0.3 | 5.0 | 11.8 | 4.2 | 0.5 | 0.5
CCOC(=O)C1CCN(C(=O)CCc2ccccc2)CC1 | 4.8 | 0.681 | nt | 0.4 | nt | -2.4 | nt | nt | nt | -1.8
Cc1cc(C(=O)CCC(=O)Nc2ncccc2C)c(C)s1 | 4.6 | 0.691 | i | 0.5 | 7.2 | 2.8 | 4.9 | 7.1 | -0.5 | -10.0
CCCCCC(=O)Nc1ccc(N2CCN(CC)CC2)c(Cl)c1 | 5.2 | 0.633 | i | 0.0 | -0.3 | 4.5 | -5.8 | -15.4 | -1.4 | -9.8
C=CCC[C@H](Cc1ccc(F)cc1)C(=O)OC[C@@H](C)NC(=O)[C@H](CC=C)CC(=O)N(CCO)Cc1ccccc1 | 1.8 | 0.696 | i | -0.4 | 0.2 | nt | -4.3 | -21.7 | 2.8 | -8.2
CCOc1ccc2nc(N3CCCC(C(=O)NCCCN4CCCCC4)C3)sc2c1 (centres undefined) | -0.1 | 0.684 | i | 0.0 | 4.8 | 19.4 | 3.6 | 6.7 | -0.8 | 2.1
CCn1c(/C=N/NC(=O)c2ccc(OC)cc2)nc2ccccc21 | nt | nt | i | 0.3 | 1.9 | -2.9 | -51.1 | -77.5 | -21.1 | 4.1
CCCNC(=O)N1CCN(C(=O)NCCC)CC1 | -1.0 | 0.732 | nt | -0.2 | nt | 11.2 | nt | nt | nt | nt
CCc1[nH]nc(C(=O)N/N=C/c2ccncc2)c1C | nt | nt | i | -0.4 | -0.1 | -6.4 | 12.3 | 9.9 | 0.8 | 1.8

Pulled by structure from the list above, three records:
SMILES | UCH37 inh | Ecoli growth | FGF22 binding | Bfl-1 A1 inh | MLL AF4-AF9 inh | T cruzi inh | Ecoli rRNA inh | Ecoli rRNA inh OD600 | Ecoli rRNA inh RFP | Beta cell apopt
CCOC(=O)C1CCN(C(=O)CCc2ccccc2)CC1 | 4.8 | 0.681 | nt | 0.4 | nt | -2.4 | nt | nt | nt | -1.8
CCCNC(=O)N1CCN(C(=O)NCCC)CC1 | -1.0 | 0.732 | nt | -0.2 | nt | 11.2 | nt | nt | nt | nt
Cc1cc(C(=O)CCC(=O)Nc2ncccc2C)c(C)s1 | 4.6 | 0.691 | i | 0.5 | 7.2 | 2.8 | 4.9 | 7.1 | -0.5 | -10.0

The list continues:
SMILES | UCH37 inh | Ecoli growth | FGF22 binding | Bfl-1 A1 inh | MLL AF4-AF9 inh | T cruzi inh | Ecoli rRNA inh | Ecoli rRNA inh OD600 | Ecoli rRNA inh RFP | Beta cell apopt
O=C(O)CCN1CCN(S(=O)(=O)c2ccc3ccccc3c2)CC1 | 2.6 | 0.651 | i | 0.4 | 3.5 | -14.6 | 4.9 | 2.7 | -2.6 | -0.4
O=C(c1cccc(-n2cnnn2)c1)N1CCOCC1 | 3.2 | 0.661 | nt | 1.0 | nt | -1.2 | nt | nt | nt | -9.5
COc1ccccc1CNS(=O)(=O)CCNC(=O)c1ccccc1 | 0.1 | 0.644 | i | -0.4 | -18.6 | -0.3 | 5.5 | 19.5 | -2.3 | -1.8
O=C(Cc1ccccc1)NCC(=O)Nc1ccc(OC(F)(F)F)cc1 | 2.6 | 0.714 | i | 0.7 | 0.1 | -6.1 | 7.1 | 14.5 | 0.4 | 0.7
CCN1CCN(S(=O)(=O)c2ccc(Cl)c(C(=O)Oc3ccc(CC(=O)OC)cc3)c2)CC1 | -0.4 | 0.707 | i | nt | 2.0 | nt | nt | nt | nt | nt
O=C1/C(=C/c2ccc(O)cc2)COc2ccccc21 | 0.6 | 0.629 | i | -4.8 | 2.8 | -4.7 | -7.9 | -5.0 | 2.3 | -1.5
O=C(NCCc1ccccc1)C1CC(=O)N(C2CCCCC2)C1 (centres undefined) | 5.4 | 0.716 | i | 1.7 | 0.0 | -10.6 | -0.1 | 9.0 | 0.5 | nt
O=C(NCc1ccccc1)c1cccnc1N1CCOCC1 | -0.4 | 0.686 | nt | 0.4 | nt | -11.5 | nt | nt | nt | -2.6
O=C(N/N=C/c1cccc2nccnc12)c1ccccc1O | nt | nt | i | -0.6 | 2.6 | -8.7 | 0.1 | 7.4 | 4.8 | 13.6
O=C(NCCN1CCOCC1)c1cc2ccccc2o1 | 0.7 | 0.71 | nt | 0.2 | nt | -8.8 | nt | nt | nt | -1.8
CCCCN1C(=O)C(NC(=O)CC(C)C)(C(F)(F)F)C2=C1CC(C)(C)CC2=O (centres undefined) | 6.2 | 0.734 | nt | 0.0 | nt | -1.5 | nt | nt | nt | -20.8
Cc1ccc(NC(=O)CNC(=O)Cn2cnc3sc(C)c(C)c3c2=O)cc1F | 4.5 | 0.67 | i | -0.4 | -0.4 | 3.6 | 4.0 | 2.1 | -5.0 | -4.0
COc1cccc(NC(=O)c2ccc(N3C(=O)C4CC=CCC4C3=O)cc2)c1 (centres undefined) | 52.6 | 0.627 | i | -1.2 | 0.7 | 13.6 | -2.4 | -2.6 | 1.6 | -5.4
Cc1cccc(Nc2nnc(SCC(=O)NCC3CCCO3)s2)c1C (centres undefined) | 0.4 | 0.706 | i | 0.5 | -0.4 | nt | 1.2 | -4.1 | 0.0 | 0.9
Cc1ccc(NS(=O)(=O)c2ccc(-c3cnc(C4CC4)o3)cc2)c(C)c1 | 0.7 | 0.723 | i | 1.9 | -0.8 | -2.7 | -33.0 | -68.0 | 4.6 | 20.7
Cc1cc(OCC(=O)NCCCN2CCOCC2)cc(C)c1Cl | 2.3 | 0.668 | nt | nt | nt | 16.1 | nt | nt | nt | -2.5
COC(=O)c1ccc(NC(=S)Nc2ccc(O)cc2)cc1 | 0.2 | 0.655 | i | 0.0 | 0.7 | -7.8 | 5.6 | 10.1 | 1.7 | -2.4
S=C1NCCOCCOCCNC(=S)N2CCOCCOCCN1CCOCCOCC2 | 4.9 | 0.63 | i | -0.3 | 0.4 | -19.0 | 15.3 | 9.6 | 2.3 | -5.6
C[C@@H](C(=O)Nc1ccc2ccccc2c1)[C@@H]1C[C@@]1(C)[C@@H](NC(=O)OCc1ccccc1)c1ccccc1 | 7.6 | nt | nt | 0.5 | nt | 24.5 | nt | nt | nt | 5.9
CSc1nccc(-c2sc(SC)c(C#N)c2-c2ccccc2)n1 | -232.2 | 0.643 | i | 0.1 | 0.2 | 11.2 | 12.1 | 4.9 | 0.8 | -9.8
CCCN1C(=O)/C(=C/c2ccc(N3CCOCC3)cc2)NC1=S | 4.1 | 0.682 | i | 0.3 | 8.1 | -6.4 | 4.8 | -2.0 | -7.0 | 1.6
COc1ccccc1-n1c(SCC(=O)N2CCOCC2)nc2cccnc21 | 0.6 | 0.636 | i | 0.1 | 1.4 | -4.5 | 10.0 | 3.7 | 2.2 | -16.9
CCCn1c(C2CCCN2c2nc(-c3cccc(Br)c3)cs2)nc2ccccc21 (centres undefined) | 4.7 | 0.739 | i | 1.0 | 2.8 | 11.5 | 9.0 | 2.1 | 0.4 | 5.0
COc1ccccc1NC(=O)CSc1nnc2ccc(-c3ccccn3)nn12 | 0.8 | 0.591 | i | -0.1 | -4.1 | 2.4 | 7.9 | 8.2 | -2.3 | 1.1
c1ccc2c(c1)c1cccc3ccc4cccc2c4c31 | -299.0 | 0.669 | i | 0.4 | nt | nt | -6.7 | -7.8 | -3.9 | 2.2
Cc1cnc([N+](=O)[O-])n1CCOC(=O)NC(=O)c1c(F)cccc1F | 2.1 | 0.704 | i | 0.4 | -1.3 | -5.3 | 2.9 | -8.3 | -5.0 | -4.5
CCOC(=O)Cc1c(C)nc2c(-c3ccc(Cl)cc3)cnn2c1C | 2.3 | 0.707 | i | -0.4 | -2.8 | -7.4 | 0.4 | 11.2 | 0.3 | 4.1
O=C(CN1CCSC1=NCc1ccccc1)c1ccccc1 | -1.2 | 0.691 | i | -0.1 | -12.4 | -2.7 | -6.3 | -10.7 | 1.4 | -10.2
Cc1ccc(-c2n[nH]c(Cc3ccccc3)n2)cc1 | 0.3 | 0.662 | i | 1.3 | -0.8 | -10.3 | -6.3 | 4.0 | 3.2 | nt

Source: PubChem (several laboratories)
